# MgrA DNA FP = modulators of Staphylococcus aureus MgrA DNA binding. inhibition, %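 (about 10 µg/mL by stock and volumes)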. fluorescence polarization. AID 602314. 0.13% of 84,000 active;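 active means above 50% in either of two replicates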;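 further: 0% = protein plus DNA without compound and 100% = DNA alone without protein; higher means less MgrA bound to DNA so lower polarization; one replicate is shown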
# S aureus helic = blocks Staphylococcus aureus DNA helicase; purified S. aureus helicase, fluorescence unwinding assay; about half of the hits fall short of the stated cut; inhibition, %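 (tested at about 80 µM)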; 0.05% of 120,000 active;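 active means both duplicates at 50% or more, or one of them with a favoured structure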;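 further: 0% = mean of negative control wells and 100% = mean of positive control wells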
# * hit, by the source's call; x = no result given. Only part of the results is shown; the hit share may differ from the screen's.
# Order of values: MgrA DNA FP	S aureus helic
CCN(CC)C(=S)SC(=O)c1ccccc1Cl
 : -2.0	8.0
Cc1ccc(/C=C/C(=O)O)cc1
 : 0.0	10.0
COc1ccccc1/C=C\C=c1/sc2nc(-c3ccco3)nn2c1=O
 : x	11.0
Cc1ccnc(NC(=O)CCc2nnc3ccc(NCc4ccc(F)cc4)nn23)c1
 : x	-3.0
Cc1ccccc1Nc1nnc(SCC(=O)Nc2cc(C(C)C)no2)s1
 : x	-5.0
CCN(CC)C(=O)/C=C/c1cccs1
 : 0.1	14.0
CCOC(=O)C1CCN(C(=O)COC(=O)c2ccc(C)cc2)CC1
 : x	17.0
O=C(O)c1ccc(Sc2ccccn2)o1
 : -3.8	5.0
CC1=CC(C)(C)NC(=O)N1c1ccccc1
 : -0.4	15.0
O=c1c2ccccc2c(-c2ccccc2)nn1-c1ccccc1
 : -6.2	1.0
Cc1ccc(CNC(=O)CSC2=Nc3ccccc3C3=NC(Cc4ccccc4)C(=O)N23)cc1 (stereo not drawn)
 : 4.3	12.0
CCCCn1c(=O)n(C)c(=O)c2ccc(-c3ccc(Cl)cc3)nc21
 : x	4.0
Cc1cc(C)n(-c2ncc(C#N)c(N)n2)n1
 : 1.7	x
c1cnc2cc(Oc3ccc4nccnc4c3)ccc2n1
 : 0.0	17.0
CCCC1COC(c2ccc(C#N)cc2)OC1 (stereo not drawn)
 : 2.5	x
CC1(C)CC(=O)C2=C(C1)OC1CCCCC21 (stereo not drawn)
 : -0.3	x
O=C(Nc1ccccc1)C(=S)NCc1ccco1
 : -0.7	8.0
Cc1cccc(N(CC(=O)NCc2ccco2)S(=O)(=O)c2ccccc2)c1C
 : 5.0	10.0
O=C(/C=N/O)Nc1ccc2c(c1)OCCO2
 : x	-9.0
Cc1ccc(/C=C/C(=O)OCc2nc(N)nc(Nc3ccccc3C)n2)o1
 : x	-12.0

# Later entries:
# Order of values: MgrA DNA FP	S aureus helic
CCOC(=O)c1cc(C)nn1Cc1ccc(C)cc1
 : 0.1	x
Cc1ccc(-n2c(=O)c3cccnc3n2CC(=O)NCCCc2ccccc2)cc1C
 : x	-26.0
O=C(NCc1cccnc1)C(F)(F)C(F)(F)C(F)(F)F
 : 3.2	-8.0
CC(C)(CC(=O)Nc1ccc(F)cc1)Sc1ccc(Cl)cc1
 : 2.0	x
O=C(Nc1cccc(NC(=O)C2CCCO2)c1)c1ccco1 (stereo not drawn)
 : 4.5	11.0
O=C(Nc1ccccc1C(F)(F)F)c1ccncc1
 : -1.8	17.0
Cc1ccc(S(=O)(=O)N(C)c2nc3ccccc3n3c(-c4ccc(Br)o4)nnc23)cc1
 : x	-10.0
COC(=O)c1ccc(OC(=O)c2ccc3c(c2)OCCO3)cc1
 : x	-5.0
NC1=NC(=O)C(CC(=O)OCC(=O)Nc2cc(Cl)cc(Cl)c2)S1 (stereo not drawn)
 : x	-14.0
CCn1c(CN2CCCCCC2=O)nnc1SCc1cnc(-c2ccccc2)s1
 : x	11.0
C=CCNC(=O)CN1CCN(S(=O)(=O)c2ccc(C(C)CC)cc2)CC1 (stereo not drawn)
 : x	-5.0
CCN1CCN(S(=O)(=O)c2ccc(Cl)c(C(=O)NCc3nc4ccccc4[nH]3)c2)CC1
 : x	25.0
O=C(c1cc2c(ccc3ccccc32)oc1=O)N1CCN(CCO)CC1
 : x	20.0
O=C(NCc1noc2ccccc12)Nc1cccc(C(F)(F)F)c1
 : -0.7	0.0
Cc1ccc(NC(=O)Nc2ccccn2)cc1
 : -0.6	1.0
CC(C)c1ccc(C2C(C#N)=C(SCC(N)=O)NC3=C2C(=O)CCC3)cc1 (stereo not drawn)
 : x	18.0
COc1ccc(N=Cc2c(O)cc(C)oc2=O)c(OC)c1
 : x	-37.0
Cc1cc2c(cc1S(=O)(=O)NCCCc1ccccc1)OCC(=O)N2
 : x	16.0
COc1ccc(C(C#Cc2ccccc2)N2CCOCC2)cc1 (stereo not drawn)
 : 0.5	8.0
Cc1ccc(C)c(C(=O)COC(=O)c2c(-c3ccccc3)noc2C)c1
 : x	6.0

# (list continues)
# Order of values: MgrA DNA FP	S aureus helic
COc1cccc2c(=O)n(CC(=O)NC3CCCC3)ccc12
 : x	24.0
N#Cc1c(N)n[nH]c1CCCCCN
 : x	-9.0
COc1cc(C2C(C(=O)c3ccco3)=C(O)C(=O)N2CCc2ccccc2)ccc1O (stereo not drawn)
 : -2.6	0.0
CCc1ccc2nc(C(C#N)C3=NS(=O)(=O)c4ccccc43)[nH]c(=O)c2c1 (stereo not drawn)
 : x	7.0
COC(=O)CC1C(=O)NCCN1C(=O)CSc1nnnn1-c1ccc(Cl)cc1 (stereo not drawn)
 : x	3.0
O=C(Nc1nccs1)C1CCCN(C(=O)c2cnn(-c3ccccc3)c2-n2cccc2)C1 (stereo not drawn)
 : -1.6	5.0
O=C1CCCN2N=C(SC/C=C/c3ccccc3)SC2=N1
 : x	1.0
O=C1c2ccccc2C(=O)N1CC1c2ccccc2CCN1S(=O)(=O)c1cccc2nsnc12 (stereo not drawn)
 : 0.1	x
COc1ccc(S(=O)(=O)Nc2cccc(-c3ccc(N4CCOCC4)nn3)c2)c(OC)c1
 : x	0.0
CC(=S)Nc1ccc(C(F)(F)F)cc1
 : x	-26.0
CCN1/C(=C/c2ccc3cc(C)ccc3[n+]2C)Sc2cc(OC)ccc21
 : 25.8	-26.0
COC(=O)Nc1ccc(SCC(=O)Nc2ccc(C)cc2)cc1
 : x	5.0
CCCCN1Cc2c(n(CC(N)=O)c3cc(-c4ccccc4)nn3c2=O)C1=O
 : x	-15.0
Cc1cc(C(=O)OCC(=O)NC2CCCCC2)c(C)o1
 : 0.2	17.0
O=c1cc(CN2CCCCC2)nc2sccn12
 : x	6.0
O=C(Nc1ccc(O)c(C(=O)O)c1)c1ccc(Br)cc1
 : -0.6	11.0
CCOC(=O)c1cnc2c(C)cc(C)cc2c1NCCN(C)C
 : x	13.0
COCc1cc(C)nc(N)c1C#N
 : 2.2	-1.0
CCCN1C(=O)/C(=C/c2ccc(CC)cc2)NC1=S
 : -1.3	4.0
COc1ccccc1C(=O)Nc1cccc(Cl)c1
 : x	19.0

# Further structures
# Order of values: MgrA DNA FP	S aureus helic
COc1cccc(OCC(=O)NC(C(=O)O)C(C)C)c1 (stereo not drawn)
 : x	14.0
O=C1NC(=O)/C(=C\c2ccccc2)S1
 : -1.8	x
CC(=O)OCC[N+](C)(C)C
 : 3.2	x
CN(Cc1ccc(C(F)(F)F)cc1)C(=O)C1CC(=O)N(Cc2ccco2)C1 (stereo not drawn)
 : x	-12.0
O=C(O)c1ccc(/C=C2\COc3ccccc3C2=O)cc1
 : x	0.0
CN(C)c1ccc2c3c(ccc(N(C)C)c13)COC2
 : 0.3	-9.0
Cc1ccc(S(=O)(=O)N2CC=C(C(=O)NC3CCCCCC3)CC2)cc1
 : x	19.0
COc1ccccc1OCCSc1nc2ccccc2n1CC(=O)O
 : -0.4	x
CCSc1nnc(SCC(=O)c2c[nH]c3ccccc23)s1
 : x	-13.0
CCOC(=O)c1c(C)n(-c2ccccc2)c2ccc3c(c12)CN(Cc1ccccc1)CO3
 : 0.0	10.0
CSc1c(-c2ccccn2)c(N)nn1C(=O)C1CCC1
 : -1.1	x
Cc1nc(-c2ccccc2)sc1C(=O)N1CCC(C(N)=O)CC1
 : x	-15.0
C=CCNC(=O)C1CCC(C(=O)NCC=C)CC1 (stereo not drawn)
 : -0.3	-5.0
CCOC(=O)N/N=C/c1ccc(O)cc1
 : -3.0	x
Cc1cc(C)c(N2CC(=O)NCC2=O)c(C)c1
 : 2.2	-11.0
CCC(CC)NC(=O)Cc1cccs1
 : 2.7	0.0
O=C(O)C1CC(O)CN1S(=O)(=O)c1ccc(Br)cc1 (stereo not drawn)
 : x	-16.0
CCN1CCN(S(=O)(=O)c2cc(OCC(=O)NC3CCCCC3)c(C)cc2Cl)CC1
 : 1.8	-1.0
CC(=O)c1sc2nc(-c3cccs3)cc(C(F)(F)F)c2c1N
 : 10.3	x
CCCC(/N=C/c1cc(Cl)ccc1O)/N=C/c1cc(Cl)ccc1O
 : 0.8	x

# The final 5 compounds of the part before are carried over, then new ones follow:
# Order of values: MgrA DNA FP	S aureus helic
CCC(CC)NC(=O)Cc1cccs1
 : 2.7	0.0
O=C(O)C1CC(O)CN1S(=O)(=O)c1ccc(Br)cc1 (stereo not drawn)
 : x	-16.0
CCN1CCN(S(=O)(=O)c2cc(OCC(=O)NC3CCCCC3)c(C)cc2Cl)CC1
 : 1.8	-1.0
CC(=O)c1sc2nc(-c3cccs3)cc(C(F)(F)F)c2c1N
 : 10.3	x
CCCC(/N=C/c1cc(Cl)ccc1O)/N=C/c1cc(Cl)ccc1O
 : 0.8	x
O=C(Nc1ccccc1)Oc1ccccc1N1CCCCC1
 : 0.9	x
COC(=O)c1ccccc1N(C)S(C)(=O)=O
 : -0.7	8.0
COc1ccc(/C=C2\SC(=O)N(CCC(=O)Nc3ccc(S(=O)(=O)Nc4nccs4)cc3)C2=O)cc1
 : -0.9	x
O=C(O)C1CSC(c2ccccc2O)=N1 (stereo not drawn)
 : x	9.0
Cc1ccccc1N1C(=O)NC(=O)/C(=C\C=C\c2ccco2)C1=O
 : 4.6	20.0
Cc1ccc(NC(=O)CN(Cc2ccco2)Cc2ccccc2O)cc1C
 : x	-11.0
COCCNC(=S)N1CCn2c1nc1ccccc12
 : x	6.0
Cc1ccc(-c2nnnn2-c2ccccc2C(F)(F)F)cc1
 : -0.2	x
CCCc1ccc(/C(=N/O)C(=O)O)s1
 : -0.2	2.0
N/C(=N\OC(=O)c1cccs1)c1ccc([N+](=O)[O-])cc1
 : -1.8	x
CCC1CCCCN1C(=O)Cn1c(=O)n(CCC(=O)NCc2ccco2)c(=O)c2sccc21 (stereo not drawn)
 : x	-28.0
N#CC(c1ccc(F)cc1)N1CCOCC1 (stereo not drawn)
 : -0.1	4.0
c1ccc2c(c1)N1CC3(CCCCC3)CNC1C21OCCO1 (stereo not drawn)
 : 1.8	x
Cc1sc2ncn(C(C)C(=O)O)c(=O)c2c1C (stereo not drawn)
 : -2.6	-1.0
COC(=O)c1ccc(CSc2nnc(-c3ccco3)n2C)o1
 : x	0.0
CC1(C)CCC[C@]2(C)C3CC(=O)OC3CCC12 (stereo partly drawn)
 : x	2.0
CS(=O)(=O)Nc1ccc(Oc2c(C#N)cccc2C#N)cc1
 : 1.4	x
CC(C)=N/N=C1/N=C(c2ccc(Cl)cc2)CS1
 : -1.8	x
CCCC(=O)N(Cc1ccccc1)Cc1nc2ccccc2c(=O)[nH]1
 : -1.9	-3.0
Cc1ccc2c(Cl)cc(Cl)c(OCC(=O)Nc3c(F)cccc3F)c2n1
 : 1.8	-19.0

# Other results
# Order of values: MgrA DNA FP	S aureus helic
CCc1ccc(NC(=O)C2CCN(C(=O)N3CCOc4ccccc43)CC2)cc1
 : x	12.0
Cc1cccc(OCc2nnc(SCC(=O)NC34CC5CC(CC(C5)C3)C4)o2)c1
 : 3.4	-2.0
CCN(CC)C(=O)Nc1ccc(I)cc1
 : 0.3	7.0
O=C1/C(=C/c2cn(-c3ccccc3)nc2-c2ccc(Cl)cc2)SC(=S)N1C1CCS(=O)(=O)C1 (stereo not drawn)
 : -0.6	x
COC(=O)c1ccccc1-c1cc(C)no1
 : -0.6	2.0
Cc1occc1C(=O)Nc1ccc2ccccc2c1
 : 3.9	-12.0
CCOc1ccc(OCC)c(NC(=O)c2ccc3c(c2)N(Cc2ccccc2)C(=O)CS3=O)c1 (stereo not drawn)
 : -0.7	9.0
CC1CC(C)CN(CCCNS(=O)(=O)c2cccc3cccnc23)C1 (stereo not drawn)
 : 3.4	14.0
CC(=O)Nc1ccc(C(=O)Nc2ccc(C)cc2)cc1
 : x	-11.0
COC(=O)Cn1cnc2sc3c(c2c1=O)CCCC3
 : x	-5.0
c1ccc(N2CCN(c3c4c(nc5nncn35)CCC4)CC2)cc1
 : x	-1.0
COc1ccccc1N1CCN(C(=O)C(Cc2ccccc2)N2Cc3ccccc3C2=O)CC1 (stereo not drawn)
 : x	-22.0
CC1CN(C(=O)CCC(=O)NC2CCCC2)c2ccccc2O1 (stereo not drawn)
 : -0.5	8.0
O=C(NNc1ccccn1)C(c1ccccc1)c1ccccc1
 : -4.2	5.0
CCOc1ccc(-c2c(C#N)c(N)nc(OC)c2C#N)cc1
 : -1.2	x
Cc1sc2ncnc(SCC(=O)N3CCCC3=O)c2c1C
 : x	-9.0
O=C1CCCC2=C1C(c1ccc(F)cc1)C1C(=O)c3ccccc3C1=N2 (stereo not drawn)
 : x	11.0
CCSc1nc(-c2ccc(C)cc2)cc(C(F)(F)F)c1C#N
 : 1.4	5.0
Cc1nc2n(CC(=O)c3ccccc3)c3ccccc3n2n1
 : -1.0	-8.0
COc1cc(OC)cc(-c2nc3ccccc3c(=O)n2OC(=O)c2cc(OC)ccc2Br)c1
 : -0.4	x

# Next part:
# Order of values: MgrA DNA FP	S aureus helic
COc1cc(C2N=C(c3ccc(Cl)cc3)SC(c3ccc(Cl)cc3)=N2)cc(OC)c1OC
 : -0.4	x
CC1(C)CC(=O)C2=C(C1)OC1=C(C(=O)CC(C)(C)C1)C2c1ccccc1Cl
 : -0.2	10.0
CC1=NN(C(C)(C)C)C(=O)C1
 : x	20.0
CCN(CC)CCNc1ccnc2cc3ccccc3cc12
 : x	46.0
CCc1ccc(NC(=O)Cn2cccc2)cc1
 : x	7.0
Cc1ccc(C)n1-c1ncccc1OCc1nnc(-c2ccc3ccccc3c2)o1
 : x	-17.0
Cc1nnc(SCC(=O)Nc2sccc2C#N)s1
 : 10.9	0.0
O=C(Nc1ncccn1)c1c[nH]c2ccccc2c1=O
 : -2.4	-4.0
CCCNC(=O)c1ccc2c(c1)ncn2-c1ccc(OCc2ccccc2)cc1
 : 1.0	4.0
Cc1nc2ccccc2n(C)c1=O
 : x	-9.0
CC(C)(C)C1=CC(=O)C(N2CCOCC2)=CC1=O
 : x	3.0
C=CCN1C(=O)/C(=C2\SC(N3CCCCC3)=NC2=O)c2ccccc21
 : 5.6	18.0
COc1ccc2cc3c(N)nn(C(=O)Cn4c(=O)oc5ccccc54)c3nc2c1
 : x	9.0
O=S(=O)(c1ccccc1)c1cc(O)ccc1O
 : 0.7	x

# Bioassay records as filed in PubChem BioAssay.
